# Screening results from PubChem BioAssay.
# eIF4H inh: inhibitors of RNA binding by human eIF4H | 290,000 compounds, 0.94% hits | eIF4H fluorescence polarization binding assay | inhibition, % at 35 µM | AID 2012;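 active = 50% or more with normal probe brightness, or confirmed in later tests; inconclusive = above 50% with abnormal brightness, or retests that disagree; inactive = below 50% or failed in later tests; about a fifth of its hits are not listed in these tables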;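 also: calls also rest on retests at 20 µM and on dose response follow-up; 0% = protein and probe with vehicle and 100% = probe without protein; strong numbers were not always called active; many hits fall short of the cut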
# CSC inhib: blocks cancer stem cells | 300,000 compounds, 1.1% hits | cancer stem cell-like cells viability, luminescence | inhibition, % at 7.5 µM;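 active = mean at 75% or more and at least half the replicates too; inconclusive = mean and replicates disagree; tested in HMLE shEcad cells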;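 also: 0% = median of negative and 100% = median of positive control wells; the first replicate is given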
# PABP polyA inh: PABP-poly(A) binding inhibition; P11940; PABP-poly(A) RNA binding, fluorescence polarization; inhibition, % at 35 µM; 290,000 compounds, 1% hits;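 active = 50% or more with normal probe brightness, or confirmed in later tests; inconclusive = above 50% with abnormal brightness, or retests that disagree; inactive = below 50% or failed in later tests; about a fifth of its hits are not listed in these tables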;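 also: calls also rest on retests at 20 µM and on dose response follow-up; controls were probe without protein and protein plus probe with vehicle; some compounds called inactive have numbers as strong as hits; many hits fall short of the cut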
# Target sequence (P11940 whole entry, looked up): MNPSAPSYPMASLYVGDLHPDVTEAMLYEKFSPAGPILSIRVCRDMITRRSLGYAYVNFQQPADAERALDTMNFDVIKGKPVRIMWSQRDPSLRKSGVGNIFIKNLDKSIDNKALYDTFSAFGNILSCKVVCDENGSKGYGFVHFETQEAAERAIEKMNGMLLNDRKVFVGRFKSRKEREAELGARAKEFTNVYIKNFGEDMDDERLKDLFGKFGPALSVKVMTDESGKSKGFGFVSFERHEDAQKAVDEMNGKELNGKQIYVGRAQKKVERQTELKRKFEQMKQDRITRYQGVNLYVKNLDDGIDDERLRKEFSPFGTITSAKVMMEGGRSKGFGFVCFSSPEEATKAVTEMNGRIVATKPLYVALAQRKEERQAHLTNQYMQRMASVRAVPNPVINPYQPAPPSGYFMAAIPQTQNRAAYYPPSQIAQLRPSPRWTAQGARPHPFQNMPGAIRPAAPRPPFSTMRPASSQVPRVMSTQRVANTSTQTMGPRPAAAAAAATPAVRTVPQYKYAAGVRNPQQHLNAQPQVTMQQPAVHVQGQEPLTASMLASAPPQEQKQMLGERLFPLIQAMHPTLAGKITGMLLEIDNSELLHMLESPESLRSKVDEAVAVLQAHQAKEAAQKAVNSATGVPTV
# Rce1 inh: inhibitors of yeast Ras-converting enzyme; Q03530; yeast membranes, quenched prenylated peptide cleavage fluorescence; calls only; 290,000 compounds, 0.27% hits; AID 2563;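 active = fall in fluorescence gain of 50% or more versus controls, with final raw signal at or below 3038400; inconclusive = same 50% fall but final raw signal above 3038400; inactive = fall in fluorescence gain under 50%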;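 also: plate controls were neutral control wells for no effect and wells lacking membranes for full effect; tested at 10 µM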
# HIV Env fusion: blocks HIV Env-driven cell-cell fusion; HeLa-JRFL Env/CEM21 cell fusion, luciferase; inhibition, % at 12.3 µM; 360,000 compounds, 1.1% hits; AID 651610;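 active = mean replicate inhibition score of at least 50 and every replicate individually at or above 50; inconclusive = only one of the two criteria met; inactive = mean below 50 and not all replicates reaching 50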;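 also: 0% = plate neutral controls and 100% = maraviroc near 300 nM; one replicate is shown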
# UUG fidelity: alters start codon recognition fidelity in yeast. S. cerevisiae UUG-firefly luciferase reporter, luminescence/redox ratio. activity score, % at 18.7 µM. 350,000 compounds, 0.13% hits;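 active = replicate mean at a twofold rise or more, about +100% in these data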;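 also: firefly luciferase made from a UUG start codon reports start codon fidelity; reporter light over untreated wells divided by growth signal over untreated wells; some hits fall short of that in this replicate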
# MT1-MMP act inh: blocks activation of human MT1-MMP. P50281. HT1080 RFP-PRO-GFP cells, GFP/RFP ratio fluorescence, overnight; percent of plate control window, DMSO zero. GFP/RFP ratio change, % at 20 µM. 360,000 compounds, 0.061% hits. AID 651647;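 active = GFP/RFP ratio change of at least 30% with cell ATP level not reduced by more than half and red fluorescence within 50% of control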; also: strong numbers were not always called active
#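 Assay system: RFP-PRO-GFP reporter HT1080 cells; read-out basis: GFP/RFP fluorescence ratio; benchmarks: DMSO wells and RFP-L50D-GFP cells; doses: 20 µM single dose, 1% DMSO; schedule: overnight cell settling, then overnight compound exposure, 37 °C, 5% CO2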
# MT1-MMP act inh RFP: also measured in MT1-MMP act inh; calls as there; RFP signal change, %; measured here: RFP expression control read;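 0 = vehicle wells; hits needed this value within 50% of zero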
# Active calls of the source: *; i = inactive; ? = inconclusive; . = no result given. Outcome played no part in choosing rows. Share with any hit: about 2.9%.
# Results follow in this order: eIF4H inh | CSC inhib | PABP polyA inh | Rce1 inh | HIV Env fusion | UUG fidelity | MT1-MMP act inh | MT1-MMP act inh RFP
[1] COc1ccc(C)cc1NC(=O)C1CCCN1C(=O)OCc1ccccc1 (stereo unspecified)
 : 4.4 | -1.7 | -1.5 | i | . | -7.8 | -9.0 | -1.0
[2] O=C(c1ccc2c3c(cccc13)CC2)C1CCCN(Cc2ccccn2)C1 (stereo unspecified)
 : 0.7 | 7.4 | 1.0 | i | 16.2 | 2.4 | -4.2 | 2.3
[3] N#Cc1ccc(CN2CCN(C(=O)C3CC(=O)N(c4ccccc4F)C3)CC2)cc1 (stereo unspecified)
 : . | -6.6 | . | . | . | -13.1 | 6.6 | -7.1
[4] COc1ccc(CNS(=O)(=O)c2cc(Br)cc3c2N(C(C)=O)C(C)C3)cc1 (stereo unspecified)
 : -4.1 | -8.1 | 10.1 | i | 1.8 | 0.3 | -2.5 | -0.9
[5] O=C(CN1CCOCC1)Nc1nc2ccc(Cl)cc2s1
 : -5.9 | -8.6 | -1.2 | i | -15.9 | -2.7 | 2.7 | -2.7
[6] COC(=O)c1cc(O)c(O)c(O)c1
 : 3.2 | . | 15.3 | i | 10.2 | -4.4 | 1.0 | -2.4
[7] Cc1ccc2nc(N3CCOCC3)c(C=O)cc2c1
 : -3.0 | -3.4 | -0.4 | i | -11.5 | 2.3 | 0.5 | 3.6
[8] Cc1ccc(NC(=O)Cn2ccc([N+](=O)[O-])n2)cc1C
 : -3.2 | 5.1 | 9.9 | i | -19.7 | . | 5.2 | 0.3
[9] COc1ccc(C(=O)CNc2ccccc2CO)cc1
 : 2.8 | -13.5 | -3.6 | i | -2.1 | . | 2.6 | 5.0
[10] CCNc1cc(N2CCCC2)ccc1[N+](=O)[O-]
 : 1.0 | 9.6 | -3.4 | i | -138.5 | . | -1.0 | 1.2
[11] CC1(c2nnc(Cc3ccccc3)o2)CC(c2ccc(Cl)cc2)=NO1 (stereo unspecified)
 : . | -13.7 | . | i | -0.9 | -23.2 | 3.1 | 0.5
[12] O=C1COc2ccc(C(=O)CSc3nc4ccccc4c(=O)n3-c3ccc(Cl)c(Cl)c3)cc2N1
 : -5.2 | -3.5 | -2.1 | i | 13.4 | . | -1.1 | -2.3
[13] Cc1ccc(S(=O)(=O)CC(N)=O)cc1
 : -6.6 | -3.2 | 1.2 | i | . | -18.6 | 6.5 | 5.0
[14] Cn1c(N)c(C(=O)COC(=O)CC2CC3CCC2C3)c(=O)n(C)c1=O (stereo unspecified)
 : 1.6 | -21.5 | -1.7 | i | -8.6 | -6.1 | 2.8 | -2.6
[15] CCc1cc(-c2nnn(CCC3COCCO3)c2CC)ccc1-c1cn(Cc2ccccc2)nn1 (stereo unspecified)
 : . | . | . | . | ? | -1.0 | 5.2 | -25.0
[16] CN(C)CCN(C)C1CN(Cc2ccccc2)S(=O)(=O)C1 (stereo unspecified)
 : . | . | . | . | 0.0 | 0.7 | 0.1 | 4.0
[17] CCCN1Cc2cccc(C(=O)NC(CC(=O)OCC)c3ccc(C)cc3)c2C1=O (stereo unspecified)
 : 1.0 | 6.1 | 5.9 | i | 0.1 | . | -5.7 | 0.8
[18] COC(=O)/C(NC(C)=O)=C(\C)c1ccc(Cl)cc1
 : -0.5 | -9.6 | 9.8 | i | 35.5 | -25.0 | 0.1 | 0.0
[19] CC(NC(=O)c1ccc(OC2CCN(S(=O)(=O)N(C)C)CC2)cc1)C1CC1 (stereo unspecified)
 : -1.8 | . | -2.9 | i | -6.8 | . | 4.9 | 0.2
[20] Cc1cccc(/C=N/NC(=O)c2ccc(NC(=O)c3ccc(F)cc3)cc2)n1
 : 1.8 | -12.5 | 4.3 | i | -8.9 | -5.8 | 4.8 | 0.3
[21] CC(CCc1ccccc1)NC(=S)NC(=O)c1ccco1 (stereo unspecified)
 : -2.2 | 7.5 | 5.1 | i | -7.0 | . | -9.7 | -4.1
[22] COc1ccc(CCNC(=O)c2c(C)nc3ccccn23)cc1
 : -2.6 | -7.6 | -9.3 | i | 5.6 | -15.6 | 1.6 | -5.1
[23] CCOC(=O)/C(C#N)=C/C1=C(N2CCOCC2)C(C)(C)OCC1
 : 6.0 | -10.7 | -2.9 | i | -8.5 | . | -3.4 | 1.4
[24] CN1CCN(S(=O)(=O)c2ccc(NC(=O)c3ccc([N+](=O)[O-])cc3)cc2)CC1
 : . | . | . | i | 0.7 | 8.7 | 2.1 | 0.6
[25] Cc1ccc(S(=O)(=O)NC2CCCCC2)c(C)c1NS(C)(=O)=O
 : -2.9 | -11.1 | -12.6 | i | 15.4 | . | 0.2 | 1.8
[26] COc1ccc(C(=O)OCC[N+]2(C)CCCCC2)cc1
 : -0.6 | -6.7 | -1.7 | . | 0.5 | . | 0.5 | 1.6
[27] Cn1cnnc1SCc1ccc(C(=O)N=Nc2c(O)n(Cc3ccc(Cl)cc3)c3ccccc23)cc1
 : -3.5 | 29.3 | -0.5 | i | -2.6 | -3.6 | 9.4 | -11.8
[28] S=c1ccc2ccccc2[nH]1
 : -1.6 | -11.0 | -0.8 | i | -5.1 | -27.7 | 1.6 | 2.3
[29] Cc1cc(C)c(C#N)c(N2CCN(c3ccccc3F)CC2)n1
 : -19.1 | 4.8 | 14.7 | i | -0.7 | -9.4 | -1.9 | -0.7
[30] COc1ccc(-c2nc(CS(=O)CC(=O)NC3CCCc4ccccc43)c(C)o2)cc1OC (stereo unspecified)
 : -11.6 | -3.0 | 10.6 | i | -43.1 | -13.9 | -0.8 | -0.7
[31] Cc1ccc(NC(=O)C2Cc3ccccc3O/C2=N\O)cc1C (stereo unspecified)
 : -5.0 | 1.2 | 3.7 | i | -28.2 | -1.5 | 0.2 | -2.5
[32] COc1cc(NC(C)CCCN)c2nc(C)ccc2c1Oc1ccc(F)cc1 (stereo unspecified)
 : . | . | . | . | 6.7 | -1.5 | -3.6 | -0.4
[33] Cc1c(N(C(=O)c2ccccn2)C2(C(=O)NC3CCCCC3)CCCCC2)c(=O)n(-c2ccccc2)n1C
 : 2.7 | -4.7 | -4.3 | i | -11.9 | . | -4.5 | 2.3
[34] COc1ccc2c(c1)CCC/C2=N\Nc1nc(C(=O)NN)cs1
 : 9.9 | . | 5.8 | i | -32.2 | 18.7 | 0.0 | -1.8
[35] N#C/C(=C/c1ccc(N2CCCCCC2)o1)c1cccc(F)c1
 : 4.3 | . | 11.0 | i | -248.1 | -12.3 | -69.4 | 10.3
[36] COc1ccc(C(=O)c2cc([N+](=O)[O-])ccc2N2CCOCC2)cc1
 : 2.6 | 39.9 | -4.2 | i | -6.1 | . | 9.7 | -4.2
[37] C=C(C)Cn1c(SCC(=O)NCc2ccco2)nc2sc3c(c2c1=O)CCC3
 : -7.1 | -8.2 | -4.7 | i | -129.8 | -11.4 | 17.8 | 0.0
[38] CCOC(=O)c1c(NC(=O)C(C)Sc2cn(C)c3ccccc23)sc2c1CCC2 (stereo unspecified)
 : 3.2 | 25.4 | -1.9 | i | . | -18.3 | -5.6 | -4.2
[39] O=C(O)[C@@H]1CSC2c3ccccc3C(=O)N21 (stereo partly specified)
 : -7.9 | -3.9 | 2.5 | i | -11.8 | -1.6 | -1.4 | 1.9
[40] Cc1ccc[n+](CC(=O)Nc2cccc(Cl)c2)c1
 : -10.3 | -15.6 | -5.0 | i | -5.0 | 64.1 | 3.0 | 4.8
[41] NS(=O)(=O)c1ccc(CCn2c(=S)[nH]c3ccc(F)cc3c2=O)cc1
 : 1.2 | -5.5 | 32.2 | i | -7.5 | . | 1.2 | -1.9
[42] CC(OC(=O)c1ccc(NS(=O)(=O)c2ccc3[nH]c(=O)[nH]c3c2)cc1)C(N)=O (stereo unspecified)
 : -9.4 | -4.1 | -11.2 | i | -2.7 | -3.6 | 1.8 | 3.4
[43] CC(C)(C)c1ccc(C(=O)NCc2nnc(SCC(=O)N3CCCc4ccccc43)n2-c2ccccc2)cc1
 : -6.7 | 18.1 | -22.1 | i | 33.8 | -5.2 | -4.3 | -5.1
[44] NC(=O)C1(N2CCCCC2)CCN(C(=S)Nc2ccc(S(N)(=O)=O)cc2)CC1
 : -2.1 | -7.4 | 2.5 | i | 1.3 | . | 0.4 | 3.2
[45] C=CCOC(=O)COc1ccc2c(C)c(CC)c(=O)oc2c1
 : -9.3 | . | 8.4 | i | -33.6 | -16.1 | 6.0 | 9.8

# Additional structures follow.
no.	compound	eIF4H inh	CSC inhib	PABP polyA inh	Rce1 inh	HIV Env fusion	UUG fidelity	MT1-MMP act inh	MT1-MMP act inh RFP
46	C[C@H](NC(=O)c1ncn2c1C(=O)N(C)CC2)C(=O)OC(C)(C)C	.	.	.	.	6.1	-0.9	3.0	5.5
47	Clc1ccc(C[n+]2cc(-c3ccccc3)n3c2CCC3)cc1	1.8	-6.9	-3.6	i	-14.8	-12.4	-0.9	-1.0
48	Cc1cccc2cc(CN(C(=S)NCC(C)C)C3CCCC3)c(=O)[nH]c12	-3.6	.	-0.3	i	.	.	-2.9	-2.9
49	CCCCNS(=O)(=O)c1ccc2nc(-c3cccnc3)cc(C(=O)NCCCOC)c2c1	6.4	-9.7	-6.8	i	-5.7	.	1.5	0.9
50	Cc1ccnc(NC(=O)c2ccoc2C)c1	6.4	5.0	-1.5	i	-112.7	-13.8	-5.9	7.6
51	COc1ccc2c(c1)CCc1cn[nH]c1-2	-3.6	-19.0	2.0	i	23.0	-10.4	-1.1	3.5
52	Cc1ccc(SC(=O)c2c(C)noc2-c2cc(C)on2)cc1	-5.6	81.1*	2.7	i	11.1	-11.4	-2.8	-1.1

# Twelve entries out of the list, arranged by count of non-hydrogen atoms, lowest first.
no.	compound	eIF4H inh	CSC inhib	PABP polyA inh	Rce1 inh	HIV Env fusion	UUG fidelity	MT1-MMP act inh	MT1-MMP act inh RFP
28	S=c1ccc2ccccc2[nH]1	-1.6	-11.0	-0.8	i	-5.1	-27.7	1.6	2.3
51	COc1ccc2c(c1)CCc1cn[nH]c1-2	-3.6	-19.0	2.0	i	23.0	-10.4	-1.1	3.5
5	O=C(CN1CCOCC1)Nc1nc2ccc(Cl)cc2s1	-5.9	-8.6	-1.2	i	-15.9	-2.7	2.7	-2.7
46	C[C@H](NC(=O)c1ncn2c1C(=O)N(C)CC2)C(=O)OC(C)(C)C	.	.	.	.	6.1	-0.9	3.0	5.5
36	COc1ccc(C(=O)c2cc([N+](=O)[O-])ccc2N2CCOCC2)cc1	2.6	39.9	-4.2	i	-6.1	.	9.7	-4.2
48	Cc1cccc2cc(CN(C(=S)NCC(C)C)C3CCCC3)c(=O)[nH]c12	-3.6	.	-0.3	i	.	.	-2.9	-2.9
19	CC(NC(=O)c1ccc(OC2CCN(S(=O)(=O)N(C)C)CC2)cc1)C1CC1 (stereo unspecified)	-1.8	.	-2.9	i	-6.8	.	4.9	0.2
38	CCOC(=O)c1c(NC(=O)C(C)Sc2cn(C)c3ccccc23)sc2c1CCC2 (stereo unspecified)	3.2	25.4	-1.9	i	.	-18.3	-5.6	-4.2
17	CCCN1Cc2cccc(C(=O)NC(CC(=O)OCC)c3ccc(C)cc3)c2C1=O (stereo unspecified)	1.0	6.1	5.9	i	0.1	.	-5.7	0.8
30	COc1ccc(-c2nc(CS(=O)CC(=O)NC3CCCc4ccccc43)c(C)o2)cc1OC (stereo unspecified)	-11.6	-3.0	10.6	i	-43.1	-13.9	-0.8	-0.7
27	Cn1cnnc1SCc1ccc(C(=O)N=Nc2c(O)n(Cc3ccc(Cl)cc3)c3ccccc23)cc1	-3.5	29.3	-0.5	i	-2.6	-3.6	9.4	-11.8
33	Cc1c(N(C(=O)c2ccccn2)C2(C(=O)NC3CCCCC3)CCCCC2)c(=O)n(-c2ccccc2)n1C	2.7	-4.7	-4.3	i	-11.9	.	-4.5	2.3
